Mtb bLac sens: beta-lactam sensitization of Mtb H37Rv. inhibition, % at 25 µM. M. tuberculosis H37Rv growth with meropenem, percent inhibition; hits of this screen are not shown here. 0.27% of 330,000 active;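 active = about 74% or more and at least 40 points above the plate without the antibiotic, then above 30% in a dose series; inconclusive = first-round hits that could not be retested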;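 note: growth measured after seven days incubation then overnight dye step; 0% = bacteria only wells and 100% = bacteria with antibiotic; twin plates without the antibiotic show which effects depend on it; some results filed as inactive read as strong as hits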
Mtb growth: M. tuberculosis H37Rv growth inhibitors, H37Rv strain (AID 1626). M. tuberculosis H37Rv growth inhibition; higher % means a stronger effect. one-dose inhibition, % at 10 µM; IC50 in µM for titrated hits. 0.95% of 220,000 active;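 active = confirmed in a dose series; inconclusive = inhibition above 80% but not taken into the dose series; inactive = below 80% or under 30% at every dose of the series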;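 note: bacteria incubated seven days before Alamar blue readout; 0% = bacteria only wells and 100% = bacteria with antibiotic wells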
Arbovirus inh: antivirals against arbovirus infection; arbovirus infection cell-based antiviral screen; inhibition, % at 10 µM; 0.37% of 200,000 active; AID 1251;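 active = inhibition from about 30%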;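 note: bluetongue infection of BSR cells; cell survival read as ATP light after 72 h; 0% = infected wells without compound and 100% = uninfected wells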
YopH PTP inh: inhibitors of Yersinia enterocolitica YopH tyrosine phosphatase; fluorescence Ex485/Em525; inhibition, %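 (about 10 µM by stock and volumes)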; 0.16% of 140,000 active; AID 898;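 active = inhibition of 50% or more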;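 note: controls were vehicle for no effect and minimum signal wells for full effect; inactives centre near -20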
RecA splice inh: inhibitors of M. tuberculosis RecA intein splicing. cell-free RecA intein splicing, fluorescence. P9WHJ3. AID 2221. inhibition, %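 (about 9 µM by stock and volumes)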. 0.75% of 290,000 active; in the data active = inhibition above about 30%; inconclusive = no clear call, values can overlap the other calls;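 note: 0% = vehicle wells and 100% = reference inhibitor control wells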
Target sequence (P9WHJ3 whole entry, looked up, canonical isoform): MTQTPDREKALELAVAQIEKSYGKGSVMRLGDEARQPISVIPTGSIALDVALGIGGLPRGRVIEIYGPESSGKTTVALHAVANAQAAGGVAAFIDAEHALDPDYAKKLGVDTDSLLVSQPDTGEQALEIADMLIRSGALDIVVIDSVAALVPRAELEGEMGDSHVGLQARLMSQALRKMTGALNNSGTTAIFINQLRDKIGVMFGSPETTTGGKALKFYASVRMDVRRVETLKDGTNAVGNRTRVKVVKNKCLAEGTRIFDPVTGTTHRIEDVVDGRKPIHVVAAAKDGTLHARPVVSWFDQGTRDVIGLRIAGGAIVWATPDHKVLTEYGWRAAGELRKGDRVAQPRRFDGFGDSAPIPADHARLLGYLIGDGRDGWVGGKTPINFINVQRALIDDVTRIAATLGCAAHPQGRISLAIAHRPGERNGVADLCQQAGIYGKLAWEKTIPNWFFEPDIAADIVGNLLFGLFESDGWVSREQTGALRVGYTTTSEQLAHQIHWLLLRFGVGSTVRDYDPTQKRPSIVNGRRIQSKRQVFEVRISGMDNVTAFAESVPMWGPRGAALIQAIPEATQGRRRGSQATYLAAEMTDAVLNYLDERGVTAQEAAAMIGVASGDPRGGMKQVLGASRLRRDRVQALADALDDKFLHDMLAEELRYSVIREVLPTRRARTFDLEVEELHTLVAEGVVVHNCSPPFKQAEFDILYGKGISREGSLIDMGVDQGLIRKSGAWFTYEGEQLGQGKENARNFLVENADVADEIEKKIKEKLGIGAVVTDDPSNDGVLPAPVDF
Arbovirus inh repeat: also measured in Arbovirus inh; calls as there; inhibition, %; measured here: 10K subset replicate screen; many hits read low in the repeat;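 first of two repeat runs on a subset; 0% = infected and 100% = uninfected wells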
Numbers without * were called inactive; ? = inconclusive; . = not tested or not shown.

SMILES | Mtb bLac sens | Mtb growth | Arbovirus inh | YopH PTP inh | RecA splice inh | others
C=CCn1c(N)cc(=O)nc1SCC(=O)N1CCN(c2ccc(F)cc2)CC1 | -5 | 2% | 1 | -41 | 2.0
O=[N+]([O-])c1cccc(-c2ccc(/C=N/NC(=S)Nc3cccc(F)c3)o2)c1 | 0 | 3% | . | . | -1.0
C/C(CC(=O)Nc1ccc(C)c(Cl)c1)=N\NC(=O)c1ccco1 | 11 | 0% | -4 | . | 2.5
O=C(NNC(=S)NC1CCCCC1)c1cccc(S(=O)(=O)Nc2ccccc2Cl)c1 | 11 | 0% | 19 | -28 | 8.2
CC(C)(C)c1ccc(C(=O)Nc2ncn[nH]2)cc1 | 30 | 0% | -3 | . | -2.3
Cc1ccc(S(=O)(=O)c2cc3c(=O)n4ccccc4nc3n(C)c2=N)cc1C | -9 | . | . | . | -45
O=C(NNC(=O)C1CC1c1ccccc1)Nc1ccccc1 (centres undefined) | -4 | 6% | 5 | -23 | -0.1
COCCNC(=O)/C(C#N)=C1\N=C(N)c2ccccc21 | 0 | -4% | -5 | -3 | -3.1
Cc1ccc2cc(-c3noc(C4CCCO4)n3)c(=O)[nH]c2c1 (centres undefined) | -3 | 3% | 0 | 0 | 2.4 | Arbovirus inh repeat=0
Cc1n[nH]c(=O)c2c(NC(=O)CSc3ccc(Br)cc3)oc(C)c12 | -7 | . | . | . | 3.7
Cc1ccc(S(=O)(=O)NCC[C@@]2(C)C3CCC2(C)C(=O)C3)cc1 (some centres undefined) | 3 | -2% | . | . | -1.3
COc1ccc(NC(=O)CN(C)C(=O)c2cc(-c3ccncc3)nc3ccccc23)cc1 | -9 | . | . | . | 1.3
CCN1C(=O)C(Cc2nc3ccccc3c(=O)n2C)c2ccccc21 (centres undefined) | -6 | -4% | -6 | -24 | 1.0
CC1=C(C(=O)OCCCBr)C(c2ccc3c(c2)OCO3)NC(=O)N1 (centres undefined) | -4 | . | . | . | 3.5
CN=C1SC(CC(=O)Nc2sc3c(c2C#N)CCCC3)C(=O)N1C (centres undefined) | -6 | 4% | -7 | 21 | -0.9
O=c1n(Cc2ccccc2F)c2ccccc2n1Cc1ccccc1F | -8 | -2% | -13 | -15 | 4.9
O=S(=O)(c1ccccc1)n1cc(-c2ccccn2)c(N2CCOCC2)n1 | 1 | 3% | 9 | . | -2.1
Cc1ccc(Cl)cc1N1CCN(S(=O)(=O)c2cccc(S(=O)(=O)N3CCCC3)c2)CC1 | 0 | -3% | 1 | -31 | 12 | Arbovirus inh repeat=-2
Cc1ccc(NC(=O)c2ccc(OC(=O)C(C)Oc3ccc(Cl)cc3C)cc2)cc1 (centres undefined) | -1 | -6% | -2 | -23 | -0.5
CCOP(=O)(Cc1ccc(C(=O)CC)o1)OCC | 0 | -2% | . | . | .
CC(=O)c1ccc(-c2cc([C@H]3[C@H]4C=CC[C@@H](C)[C@@H]4C(=O)N3Cc3ccccc3)ccc2F)cc1 | 0 | 3% | . | . | 6.2
COc1ccc(CCN2C(=O)CC(C(C)c3ccccc3)C2=O)cc1OC (centres undefined) | 0 | 2% | 16 | . | 1.9
CCSC1=C(C#N)C(=O)n2c1cc1c2CCCC1 | 2 | -2% | 2 | 3 | 7.2
COCC1CCCN(Cc2cn(-c3ccccc3)nc2-c2ccc3c(c2)OCO3)C1 (centres undefined) | -3 | 1% | 0 | . | 2.1
COc1cccc(C(=O)Oc2cc(C)[nH]c(=O)c2[N+](=O)[O-])c1 | 2 | . | 0 | . | -2.3
Cn1/c(=N\NC(=O)c2ccccc2Cl)sc2ccccc21 | -1 | 5% | 2 | . | -1.7
C=CCn1c(C(CCCC)CC(C)O)n[nH]c1=S (centres undefined) | 2 | 6% | 5 | -14 | -2.4
Fc1ccc(-n2c(Cc3ccccc3)nnc2SCc2nc(-c3cccs3)no2)cc1 | -2 | -6% | 5 | -105 | 0.2
CCN(CC)CCNC(=O)COc1ccc(Cl)cc1Cl | -1 | -6% | 5 | -9 | -0.1
COCCNC(=S)N1CCN(S(C)(=O)=O)CC1 | 4 | . | 1 | . | -2.8
COc1ccc(NC(=O)C2CCN(C(=O)Cc3ccccc3)CC2)cc1OC | -1 | -2% | 0 | . | -0.3
COc1ccc(N/C(N)=N/c2nc(C)c(Cc3ccccc3)c(=O)[nH]2)cc1 | 6 | . | . | . | -5.0
C/C(=N\NC(=O)CN1CCN(Cc2ccccc2)CC1)c1ccncc1 | -5 | -3% | . | . | 1.6
Cc1ccc(-n2nnnc2SCC(=O)NC2CCCc3ccccc32)c(C)c1 (centres undefined) | -2 | 6% | -7 | -28 | 1.6
CCOc1ccc(CCNS(=O)(=O)c2c(C)n[nH]c2C)cc1OCC | -4 | 2% | 4 | -40 | -0.5
Cc1ccccc1-c1nc(CN2CCC(C(=O)NCCCN3CCCC3)CC2)c(C)o1 | -14 | -1% | -13 | -21 | -1.5
Cc1ccc(NC(=O)/C(C#N)=C/c2ccccc2C(F)(F)F)cc1 | 4 | 8% | 13 | -14 | 8.4
Cn1c(=O)c2cc(S(=O)(=O)NCCC(=O)NCc3ccccc3Cl)ccc2n(C)c1=O | 9 | -1% | 1 | -50 | -3.0
O=C(/C=C/c1c(Cl)nc2ccccn12)N1CCN(c2ccc(F)cc2)CC1 | 4 | 1% | 1 | . | 0.3
CC1(c2nnc(-c3ccncc3)o2)CC(c2cccnc2)=NO1 (centres undefined) | -14 | -12% | . | . | -0.2
O=S(=O)(c1ccccc1)N1CCC(O)(CSc2ccc(Cl)cc2)CC1 | 10 | . | 7 | -40 | 6.4
CN1CCN(C2Cc3cc(F)ccc3Sc3ccc(Cl)cc32)CC1 (centres undefined) | 17 | . | . | . | 8.2
CCC(=O)Nc1ccc(NC(=O)c2ccc3ccccc3c2)cc1 | 0 | . | . | . | 3.5
CCOc1ccccc1NC(=O)CSc1nc(N)c(C#N)cc1C#N | 53 | 2% | -4 | -33 | -0.3
CCN(CC)CCOC(=O)c1ccc(NC(=O)CCCN2C(=O)S/C(=C/c3ccc(OC)cc3)C2=S)cc1 | 38 | . | . | . | 12
OC(CNCc1ccccc1)(c1ccc(F)cc1)c1ccc(F)cc1 | -1 | -1% | -21 | -8 | -1.2
Cc1cc(O)c(C(C)C)cc1NC(=O)c1ccccc1Cl | 0 | 4% | -6 | -17 | -4.6
CC1(C)C(c2cccs2)=[N+]([O-])C2(CCCCC/C2=N\O)N1O (centres undefined) | 0 | -5% | -2 | 29 | 0.3
CC(=O)Nc1ccc(OC(=O)C(CCS(C)(=O)=O)N2C(=O)c3ccccc3C2=O)cc1 (centres undefined) | -4 | -4% | 1 | -23 | 0.4
COc1ccc(/C=N/n2c(=O)[nH]c3c([nH]c4ccc(F)cc43)c2=O)cc1CN1CCCCC1 | -6 | -14% | . | . | .
CCOc1ccc(S(=O)(=O)NCCC(=O)OCC(=O)c2ccc[nH]2)cc1 | -3 | 3% | 7 | . | 6.3
CC(C(=O)Nc1ccccc1C(=O)O)n1c(C(F)(F)F)nc2ccccc21 (centres undefined) | -4 | 1% | 6 | . | 1.2
Cc1ccnc(NC(=O)c2cnc(Cl)c(Cl)c2)c1 | 61 | . | . | . | 1.8
CC(C)N(c1nnc(N)s1)C(C)C | -6 | -6% | 8 | 10 | 4.9
CCOC(=O)CSc1nc2cc(OC)ccc2cc1C#N | 59 | 1% | 0 | -35 | -0.2
O=C(N/N=C/c1ccc(O)cc1)c1cc(-c2ccc3c(c2)OCO3)n[nH]1 | 7 | ? | -1 | -25 | 0.9
Cc1cc(C)c(N=C2CCCN2Cc2ccccc2)c(C#N)c1 | 2 | 14% | -5 | -23 | 4.4
CCCN1C(=O)c2ccccc2NC1c1ccc(O)c(OCC)c1 (centres undefined) | 4 | . | . | . | -2.3
C=C(C)C(=O)Nc1cccc(C2=NOC3(C2)C[C@@H](C(N)=O)N(C(=O)C(=C)C)C3)c1 (some centres undefined) | -5 | -4% | . | . | -4.8
O=C(c1ccccc1Cl)N1CCC(O)(c2cccnc2)CC1 | -4 | -4% | 2 | . | -1.3

Filtered by structure, the entries above with a cyano group (7)
SMILES | Mtb bLac sens | Mtb growth | Arbovirus inh | YopH PTP inh | RecA splice inh | others
COCCNC(=O)/C(C#N)=C1\N=C(N)c2ccccc21 | 0 | -4% | -5 | -3 | -3.1
CN=C1SC(CC(=O)Nc2sc3c(c2C#N)CCCC3)C(=O)N1C (centres undefined) | -6 | 4% | -7 | 21 | -0.9
CCSC1=C(C#N)C(=O)n2c1cc1c2CCCC1 | 2 | -2% | 2 | 3 | 7.2
Cc1ccc(NC(=O)/C(C#N)=C/c2ccccc2C(F)(F)F)cc1 | 4 | 8% | 13 | -14 | 8.4
CCOc1ccccc1NC(=O)CSc1nc(N)c(C#N)cc1C#N | 53 | 2% | -4 | -33 | -0.3
CCOC(=O)CSc1nc2cc(OC)ccc2cc1C#N | 59 | 1% | 0 | -35 | -0.2
Cc1cc(C)c(N=C2CCCN2Cc2ccccc2)c(C#N)c1 | 2 | 14% | -5 | -23 | 4.4

Next section
SMILES | Mtb bLac sens | Mtb growth | Arbovirus inh | YopH PTP inh | RecA splice inh | others
Cc1cccc(NC(=O)CCc2ccccc2)c1C | 0 | . | . | . | -0.1
O=C(COC(=O)c1ccc2ccccc2c1)NCCCc1ccccc1 | 2 | -4% | -2 | 20 | 0.5
COc1ccc(NC(=O)NNC(=O)c2ccccc2-n2cccc2)cc1OC | -1 | 5% | 10 | . | -0.5
CC1CN(C(=O)c2ccc(CNS(=O)(=O)c3cccc(C(F)(F)F)c3)cc2)CC(C)O1 (centres undefined) | -4 | 71% | 8 | -8 | .
CN1CCN(CC(=O)Nc2ccc(OC(F)(F)F)cc2)CC1 | 2 | . | . | . | -3.3
Cc1nnc(NC(=O)CCS(=O)(=O)Cc2ccccc2)s1 | -7 | . | . | . | 0.2
NC(=O)CC(NC(=O)c1ccc(Cl)cc1)C(=O)NCCc1ccc(S(N)(=O)=O)cc1 (centres undefined) | -3 | . | . | . | -0.7
O=C(O)CCN1C(=O)c2ccc(NC(=O)COc3ccccc3)cc2C1=O | -11 | . | . | . | 0.7
CC(=O)Nc1ccc(NC(=O)CCC(=O)OCC(=O)c2cccc([N+](=O)[O-])c2)cc1 | -1 | -3% | 0 | . | -5.5
O=C(OCCN1CCOCC1)c1ccc(OCCN2CCOCC2)cc1 | 0 | 2% | 5 | -7 | -6.4
Cc1ccc(-n2nc3c(=O)n(CCCC(=O)NCc4ccccc4Cl)nc(C)c3c2C)cc1 | 0 | . | . | . | -5.8
CC(=O)c1ccc(NC(=S)NNC(=O)NC2CCCCC2)cc1 | -7 | 0% | 5 | . | -4.8
COc1ccccc1C(=O)Nc1ccc2ccccc2c1 | 42 | . | . | . | 3.7
COc1cc(OC)c(OC)cc1/C=C1\C(=O)NC(=O)N(Cc2ccccc2)C1=O | -2 | 3% | 4 | . | -0.4
O=C1c2ccccc2C(=O)C1c1ccc(O)cc1 | 3 | -3% | -24 | . | -1.7
CC(C)(C)C(=O)COC(=O)c1cc(-c2cccnc2)nc2ccccc12 | 14 | 6% | 5 | . | 1.7
NS(=O)(=O)c1ccc(NC2=CC(=O)C(=O)c3ccccc32)cc1 | 5 | . | . | . | 92*
Cc1ccc(CC(=O)NCCCc2ccccc2)cc1 | 2 | 7% | -4 | -10 | 3.5
COc1ccc(C(=O)CSc2ncnc3nc[nH]c23)cc1 | -8 | -6% | . | . | -0.3
Cc1noc(C)c1CSc1nnc2n(-c3ccccc3)c(=O)c3ccccc3n12 | 0 | . | . | . | 2.4
O=C1CCCC2=C1C(c1ccc(OS(=O)(=O)c3ccc(Cl)cc3)cc1)C1=C(CCCC1=O)O2 | 13 | 0% | 3 | -41 | -3.0
CCN(CC)C(=O)C(=O)c1cccn1-c1cccc(OC)c1C#N | 0 | 3% | 0 | . | -0.2
COc1ccc(C(=O)C2CCCN(C(=O)c3ccc(F)cc3)C2)cc1OC (centres undefined) | ? | . | . | . | 2.0
CC(C)Cc1nnc(NC(=O)CCC(=O)NC2CCCCCCC2)s1 | 2 | . | . | . | -1.2
Cc1ccc(/C=N/NC(=O)c2cccs2)cc1[N+](=O)[O-] | -1 | . | 5 | -17 | -2.1
CCc1cccc(CC)c1NC(=O)NC1CCCCC1 | -1 | -1% | -2 | -31 | -2.2
COc1cccc(NC(=O)N2CCC(n3nnc4ccccc43)CC2)c1 | -11 | 14% | -5 | . | -1.8
O=C(O)C1=C[C@@H](C2CC2)C[C@@H](OCCCCO)O1 | -3 | -5% | . | . | -1.7
Cc1nnc(SCC(=O)N/N=C/c2cc(Cl)c(O)c(Cl)c2)s1 | -4 | -3% | -1 | -32 | 1.7
O=C(NC1CCCC1)C1CCC(CNS(=O)(=O)c2ccccc2)CC1 (centres undefined) | 7 | . | . | . | -1.5

This is a subset; rates above refer to the full screens.
